Bioassay records: PubChem BioAssay, ICCB-Longwood Screening Facility, Harvard Medical School
MgrA DNA FP = S. aureus MgrA-DNA binding modulation; actives 0.13% (n = 84,000); inhibition, %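 (about 10 µg/mL by stock and volumes)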; fluorescence polarization; AID 602314;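 active means above 50% in either of two replicates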;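 further: 0% = protein plus DNA without compound and 100% = DNA alone without protein; higher means less MgrA bound to DNA so lower polarization; one replicate is shown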
Sa helicase inh = blocks Staphylococcus aureus DNA helicase; purified S. aureus helicase, fluorescence unwinding assay; about half of the hits fall short of the stated cut; AID 485395; actives 0.05% (n = 120,000); inhibition, %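 (tested at about 80 µM)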;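 active means both duplicates at 50% or more, or one of them with a favoured structure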;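 further: 0% = mean of negative control wells and 100% = mean of positive control wells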
An asterisk follows results filed as active; · = not tested or not shown. Not all compounds are listed. The share of hits here may be higher or lower than overall.

no.	MgrA DNA FP	Sa helicase inh	molecule
1	·	17	CCN(C(=O)CSc1nc(N)nc(N)n1)C1=CCCC1
2	-1.1	4	Cc1cccc(N2CCCn3c2nc2c3c(=O)n(C)c(=O)n2C)c1
3	11	1	C/C(=N\NC(=Nc1ccccc1)c1ccccn1)c1ccccn1
4	0.9	-1	Cc1ccc(S(=O)(=O)N2Cc3ccccc3CC2C(=O)N(C)C)cc1 (stereo not drawn)
5	·	1	NC(=O)NC12CC3CC(CC(C3)C1)C2
6	-2.7	-11	CC(C)(C)C(=O)Cn1c(NCCO)nc2ccccc21
7	·	36	O=C1C=CC(=NS(=O)(=O)c2ccc(F)cc2)C=C1
8	5.9	14	COc1ccc(S(=O)(=O)NC2CC2)cc1C(=O)N1CCOCC1
9	1.3	4	O=C(C1CC(=O)N(C2CCCCC2)C1)N1CCCc2ccccc21 (stereo not drawn)
10	0.4	1	O=C(CSc1nnnn1-c1ccccc1)N1N=CCC1c1ccccc1 (stereo not drawn)
11	·	11	CCOC(=O)N1CCN(C(=O)CC(c2ccccc2)c2ccccc2)CC1
12	-2.4	·	Cc1onc(-c2ccccc2)c1C(=O)N1CCC(O)(c2ccc(Cl)cc2)CC1
13	0.6	-6	CNC(=O)CN1C(=O)c2cccc3cccc1c23
14	·	-19	COc1cc(OC)cc(C(=O)N2c3ccc(F)cc3CCC2C)c1 (stereo not drawn)
15	-1.1	·	N#C/C(=C\c1cc(C(F)(F)F)cc(C(F)(F)F)c1)S(=O)(=O)c1ccccc1
16	0.2	-20	O=C(NCCOc1ccccc1Cc1ccccc1)c1ccc2c3c(cccc13)CC2
17	-1.1	-3	CCCCn1c2ccccc2n2cc(C(C)(C)C)nc12
18	·	-6	COCCNC(=O)C1c2ccccc2C(=O)N(CCOC)C1c1ccc(F)cc1 (stereo not drawn)
19	-2.6	4	CCc1ccc(N2Cc3ccncc3C2=O)cc1
20	-3.8	-4	Cc1cc(C)c(C#N)c(N2C3CCC2CC(O)(c2ccc(F)cc2)C3)n1 (stereo not drawn)
21	·	4	COc1ccc(NC(=O)c2cc(S(=O)(=O)N3CCCC3)ccc2F)cc1
22	·	-20	COC(=O)c1cc(S(=O)(=O)NCc2ccc(OC)cc2)cn1C
23	0.7	12	FC(F)(F)c1nc(NCc2ccccc2)nc2c1CCCCC2
24	·	14	O=C(CCSc1nnc2scc(-c3ccccc3)n12)NCc1ccc2c(c1)OCO2
25	-1.2	·	CSc1nnc2c(n1)OC(c1ccc(OCC(=O)O)cc1)Nc1ccccc1-2 (stereo not drawn)
26	0.2	-17	CCNc1nc(C)nc2sc3c(c12)CCCC3
27	·	0	CC(C)CC(C(=O)Nc1cc(C(F)(F)F)ccc1N1CCOCC1)N1C(=O)C2CC=CCC2C1=O (stereo not drawn)
28	-0.9	9	COc1ccc(OCc2nc(C#N)c(N3CCOCC3)o2)cc1
29	1.4	-18	Fc1c(F)c(F)c(C=Nc2ccccc2N2CCOCC2)c(F)c1F
30	·	-3	N#CCn1c(C[S+]=C=N)nc2ccccc2c1=O

Next section, starting with the last 2 of the part before.
no.	MgrA DNA FP	Sa helicase inh	molecule
29	1.4	-18	Fc1c(F)c(F)c(C=Nc2ccccc2N2CCOCC2)c(F)c1F
30	·	-3	N#CCn1c(C[S+]=C=N)nc2ccccc2c1=O
31	7.4	-2	NC(=S)Cc1c[nH]c2ccccc12
32	·	-3	CCN(CC(=O)NC1CCS(=O)(=O)C1)CC(=O)c1c(N)n(Cc2ccccc2)c(=O)n(C)c1=O (stereo not drawn)
33	-0.2	·	O=C(Nc1ccc2[nH]ccc2c1)c1cccnc1Oc1ccccc1
34	·	-3	NC(=O)c1ccc(NC(=O)c2ccccc2OC(F)F)cc1
35	·	14	COC(=O)CNC(=O)C1c2ccccc2C(=O)N(Cc2ccc(F)cc2)C1c1ccc(OC)cc1 (stereo not drawn)
36	·	-17	C=CCn1c(-c2ccccc2)nc2ccccc21
37	-1.8	14	COC(=O)CNC(=O)c1cc2sccc2n1Cc1ccccc1
38	0.3	-5	CCOc1ccc(NC(=O)CCc2c(C)nc3c(c(C)nn3C(C)(C)C)c2C)cc1
39	1.5	5	O=C(CC(C(=O)O)n1cccn1)c1ccc(Br)cc1 (stereo not drawn)
40	·	2	On1nnc2ccccc21
41	·	10	CCOC(=O)C1CCCN(C(=O)CN2C(=O)c3ccccc3S2(=O)=O)C1 (stereo not drawn)
42	1.7	12	Cc1ccc(CNC(=O)CSc2nc3ccccc3o2)cc1
43	-1.2	0	CC1Cc2ccccc2N1C(=O)CSc1nnc(N)s1 (stereo not drawn)
44	-5.8	7	CC(C)CC1CC(C)(C(=O)CSc2n[nH]c(-c3ccccc3)n2)OC1=O (stereo not drawn)
45	0.8	·	CSc1nc2c(Cl)cccc2c2c1c(=O)n(Cc1ccc(Cl)cc1)n2C
46	0.4	·	Cn1c2c(c(=O)n(C)c1=O)CN(CCCn1ccnc1)CN2
47	·	-6	CC(C)Nc1nc(NC(C)C)nc(C(=O)OCCO)n1
48	1.0	-10	CC1(C)CC(=O)c2c(Cc3ccccc3)n[nH]c2C1
49	·	-22	CCOC(=O)N1CCN(C(c2ccncc2)c2c(C)[nH]c3ccccc23)CC1 (stereo not drawn)
50	·	-16	CCn1c(=O)c2sccc2n2c(CCCC(=O)N3CCC(C(N)=O)CC3)nnc12
51	·	24	COC(=O)C1C(=O)C2=C(CC1C)NC(C)=C(C(=O)OC1CCCCC1)C2c1ccc(N(C)C)cc1 (stereo not drawn)
52	·	-3	Cc1csc(SCc2cccc(S(=O)(=O)N(C)C)c2)n1
53	8.9	-146	Cc1ccccc1C1C(C#N)=C(N)SC(N)=C1C#N
54	·	8	O=C(Cn1[nH]c(=O)c2ccccc2c1=O)NCCN1C(=O)S/C(=C\c2ccccc2)C1=O
55	·	4	S=C(NCCNc1ccccn1)NC1CC1
56	·	-2	O=C1/C(=C/c2cccs2)CN(Cc2ccccc2)C/C1=C\c1cccs1
57	1.3	3	Cc1ccc(N(CC(=O)N2CCOCC2)S(=O)(=O)c2ccccc2)cc1
58	5.6	-11	C(=C\c1cccs1)/C1=NN(c2ccccc2)C(c2cccs2)C1 (stereo not drawn)
59	2.1	3	O=C(COc1ccc(Br)cc1)OCC(=O)c1ccccc1
60	-1.0	·	COc1ccc(C(=O)c2ccc(OC)cc2OC)cc1
61	·	-1	Cc1noc(C)c1COc1cc2ccccc2cc1C(=O)NCc1ccccn1
62	·	-15	CCN(CC)Cn1c(=S)oc2ccc(Cl)cc21
63	0.5	14	CC(O)CNCCOc1ccc2ccccc2c1Cl (stereo not drawn)
64	·	-6	CCN(C(=O)CSc1nc2ccccc2o1)C1=CCCC1
65	-1.0	5	CCCCNCc1cccn1-c1sc2c(c1C#N)CCCC2
66	·	14	COc1ccccc1N1CCN(C(CNS(=O)(=O)c2c(C)cc(C)cc2C)c2cccnc2)CC1 (stereo not drawn)
67	-2.6	6	Cc1ccc2cc(CN(CC3CCCO3)C(=O)C(F)(F)F)c3nnnn3c2c1C (stereo not drawn)
68	1.2	-1	CN1C(N)=NC(=O)C1(CO)CO
69	1.6	-2	O=S(=O)(CCc1nc2ccccc2s1)c1ccc(Cl)cc1
70	-2.5	·	Cn1ncc(C#N)c1-n1cccc1
71	12	·	C=CCOc1ccc(/C=C2\C(=O)NC(=S)N(c3ccc(OC)cc3)C2=O)cc1OC
72	·	4	Cc1cc(=O)[nH]c2nnc(SCC(=O)N3CC(C)OC(C)C3)n12 (stereo not drawn)
73	-1.0	10	N#Cc1nc(-c2ccccc2F)oc1N1CCc2ccccc2C1
74	0.8	-17	Cc1cc(N)n(-c2ccc(F)cc2)n1
75	·	-251	N#CC(C#N)=C1C=C(c2cccs2)Oc2ccccc21
76	·	4	O=c1cc(-c2ccccc2)c2c(=O)n(-c3ccccc3)[nH]c2[nH]1
77	·	11	CCOC(=O)N1CCN(S(=O)(=O)c2cc3[nH]c4c(c3cc2CC)C(=O)CC(C)(C)C4)CC1
78	1.7	·	N#C/C(=C\c1c(Cl)cccc1Cl)S(=O)(=O)c1cccs1
79	5.7	10	CCN(C1=NC2CS(=O)(=O)CC2S1)c1ccc(OC)cc1 (stereo not drawn)
80	-2.7	·	CCCn1c(=O)ccn(-c2ccccc2C)c1=O
81	11	-94	Cc1cccc(N2C(=O)NC(=O)/C(=C\c3cn(CC(=O)NCc4ccco4)c4ccccc34)C2=O)c1
82	·	3	Cn1cnc2cc(NCc3cccs3)ccc21
83	-1.5	·	O=C(O)CCCC(=O)Nc1ccc2c(c1)C(=O)OC2
84	·	-14	Cc1cc2ccccc2n1CCNC(=O)Cc1ccccc1
85	·	-1	Nc1nnc(SCc2cccc(S(=O)(=O)N3CCOCC3)c2)s1
86	·	-7	OC1CCC(NCC(O)COCc2ccccc2Cl)CC1 (stereo not drawn)
87	·	8	COc1ccc(/C=N/Nc2nc(-c3ccc(OC)cc3)c(C)s2)cc1
88	·	-6	CS(=O)(=O)N1CCc2cc(C(=O)Cn3cc(C(F)(F)F)ccc3=O)ccc21
89	·	27	COc1ccc(-n2c(SCC(N)=O)nc3c(c2=O)SCC3)cc1
90	1.4	18	O=C1ON=C(c2ccccc2)/C1=C/c1ccco1

Three entries from above, ordered by the number in Sa helicase inh, falling.
item	mol	Sa helicase inh
77	CCOC(=O)N1CCN(S(=O)(=O)c2cc3[nH]c4c(c3cc2CC)C(=O)CC(C)(C)C4)CC1	11
79	CCN(C1=NC2CS(=O)(=O)CC2S1)c1ccc(OC)cc1 (stereo not drawn)	10
64	CCN(C(=O)CSc1nc2ccccc2o1)C1=CCCC1	-6

Back to the main list, repeating the 2 entries before the break.
no.	MgrA DNA FP	Sa helicase inh	molecule
89	·	27	COc1ccc(-n2c(SCC(N)=O)nc3c(c2=O)SCC3)cc1
90	1.4	18	O=C1ON=C(c2ccccc2)/C1=C/c1ccco1
91	5.7	4	Cc1ccc(CSC2=NS(=O)(=O)c3ccccc32)cc1
92	-3.0	8	O=C(C1CC(c2ccccc2O)=NO1)N1CCCC1 (stereo not drawn)
93	-3.0	1	COc1cccc(C(C(F)(F)F)P(C)(=O)O)c1 (stereo not drawn)
94	0.7	11	CCS(=O)(=O)N1CCC(C(=O)NCc2ccc(F)cc2Cl)CC1
95	·	5	COC(=O)c1ccc(Nc2nc(=O)c3cccnc3s2)cc1
96	·	10	CN(CC(=O)Nc1ccc2c(c1)CCC2)C1CCS(=O)(=O)C1 (stereo not drawn)
97	·	4	CCc1ccc2nc(N3CCC(C(=O)NC(C)C)CC3)sc2c1
98	·	-24	CC1CCCCN1C(=O)CSc1nc(-c2ccc(F)cc2)cc(C(F)(F)F)n1 (stereo not drawn)
99	1.6	·	O=C(Cc1ccccc1)N1CCCCCC1
100	·	22	CC(C)(C)c1ccc(C(=O)Nc2ccc(NC(=O)c3ccc(Br)o3)cc2)cc1
101	44*	-26	O=C(O)c1cccc(-c2ccc(/C=c3/sc4nc5ccccc5n4c3=O)o2)c1
102	-0.5	·	COc1ccccc1N1CCN(C(=O)C(C)Oc2ccnc3c(C)ccc(C)c23)CC1 (stereo not drawn)
103	·	9	COc1ccc(S(=O)(=O)N2CCc3ccccc32)cc1C(=O)NC(C)(C)C
104	·	-7	Clc1cc(CNCc2ccccc2CN2CCOCC2)cc2c1OCCCO2
105	·	-11	CC(C(=O)N1CCCC1)N1CCN(S(=O)(=O)c2ccc3ccccc3c2)CC1 (stereo not drawn)
106	·	-12	O=C(ON=C1CCC2(CC1)OCCO2)c1cccc(C(F)(F)F)c1
107	0.0	4	CC(C)=CC1C(C(=O)Nc2ccc(Cl)cn2)C1(C)C (stereo not drawn)
108	·	-12	CCN(CC(=O)NCc1cccs1)C(=O)Cc1c(C)noc1C
109	2.2	·	S=C(NCC1CC1)Nc1ccc(Cl)cc1
110	·	-12	Cn1c(=O)c2c(ncn2CC(=O)N2CCSC2=NCCc2ccccc2)n(C)c1=O
111	·	36	Cc1ccc(NC(=O)c2cc(-c3ccc4c(c3)OCO4)on2)cc1C
112	0.2	·	Cc1cc(C)cc(N=C2NC(=O)/C(=C\c3cc([N+](=O)[O-])cc([N+](=O)[O-])c3O)S2)c1
113	·	32	Cc1cc(C)nc(Sc2ccc(S(=O)(=O)C(F)F)cc2S(=O)(=O)C(F)F)n1
114	·	13	O=C(N/N=C1/CCc2ccccc21)C1CC1
115	·	-20	CSc1nnc(NC(=O)/C=C\c2ccc3c(c2)OCO3)s1
116	·	8	CCOC(=O)C(C)Oc1cccc2c(=O)n(CC(=O)Nc3ccc4c(c3)OCCO4)ccc12 (stereo not drawn)
117	4.6	-2	CCOC(=O)CC1(c2ccccc2)CCOC(C)(C)C1 (stereo not drawn)
118	·	-31	Cc1ccc(-c2cc3nc(C(F)(F)F)cc(C(F)(F)F)n3n2)cc1
119	·	2	CN(C)S(=O)(=O)c1ccc(-c2csc(=Nc3ccccc3)n2CCN2CCOCC2)cc1
120	0.2	·	Cc1noc(-c2ccccc2)c1NC(=O)Nc1ccccc1

Complete entries from above.
COC(=O)c1ccc(Nc2nc(=O)c3cccnc3s2)cc1 reads MgrA DNA FP = ·; Sa helicase inh = 5
CCS(=O)(=O)N1CCC(C(=O)NCc2ccc(F)cc2Cl)CC1 reads MgrA DNA FP = 0.7; Sa helicase inh = 11
CN(C)S(=O)(=O)c1ccc(-c2csc(=Nc3ccccc3)n2CCN2CCOCC2)cc1 reads MgrA DNA FP = ·; Sa helicase inh = 2

The listing continues:
no.	MgrA DNA FP	Sa helicase inh	molecule
121	1.9	7	COc1cc2nc(C3CCC3)n(NC(=O)c3ccccc3C)c(=O)c2cc1OC
122	-2.7	-3	Cc1cc(=O)oc2ccc(OCC(=O)N3CCOCC3)cc12
123	·	-11	CCC(=O)c1ccc(OC(=O)c2cc3cc(Br)ccc3oc2=O)cc1
124	·	4	Cc1cc2cc(CNC(=O)c3cccs3)ccc2[nH]1
125	0.8	1	CC(NC=C1C(=O)OC(C)(C)OC1=O)C(=O)O (stereo not drawn)
126	·	-16	Cc1ccc(CC(C#N)Sc2nnc(-c3ccc(F)cc3)n2CC2CCCO2)cc1 (stereo not drawn)
